Hsc70 = Hsc70 inhibitors, probe displacement, primary screen, biochemical, fluorescence polarization (AID 568) | Heat shock cognate 71 kDa protein (Homo sapiens) | Hsc70 fluorescence polarization, probe displacement; higher % means a stronger effect; strong numbers were not always called active | displacement, % at 20 µM, or IC50 in µM where a hit was titrated | 83,000 tested, under 10 active;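 active means displacement above 50% without optical interference and an IC50 on retest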;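 further: ATPase domain with a fluorescein-tagged ATP probe; 0% = vehicle and 100% = excess ADP; read after one hour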
MT1-MMP reporter = inhibitors of MT1-MMP promoter transcription, cell-based, luciferase reporter, luminescence (AID 618). MT1-MMP promoter luciferase reporter cells, luminescence. calls from a first round at 10 µM; hits with a dose series show EC50 in µM. hit rate 0.62% among 87,000;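 active means over half of the reporter light lost at 10 µM or EC50 under 50 µM; inactive means the rest and hits that failed the dose series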;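 further: actives suppress MT1-MMP promoter-driven transcription so potencies describe inhibitors; HT1080 fibrosarcoma cells; overnight exposure; toxic or luciferase-blocking compounds were not removed from the actives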
WNV NS2B-NS3 inh = inhibitors of WNV NS2B-NS3 protease, primary screen, biochemical, fluorogenic substrate; fluorogenic substrate Ex360/Em465; active compounds read low; z-score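 (tested at a level between 10 and 100 µM)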; hit rate 0.18% among 65,000; AID 577, 2007;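 active means z-score at -3 or under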;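 further: score is relative to mean and spread of the compound wells of a plate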
Target sequence (P06935 1371-1501 limits assumed): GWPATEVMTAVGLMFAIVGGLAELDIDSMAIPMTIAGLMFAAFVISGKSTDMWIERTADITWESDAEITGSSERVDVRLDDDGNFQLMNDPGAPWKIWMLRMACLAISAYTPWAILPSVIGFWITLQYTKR
Target sequence (P06935 1502-1679 limits assumed): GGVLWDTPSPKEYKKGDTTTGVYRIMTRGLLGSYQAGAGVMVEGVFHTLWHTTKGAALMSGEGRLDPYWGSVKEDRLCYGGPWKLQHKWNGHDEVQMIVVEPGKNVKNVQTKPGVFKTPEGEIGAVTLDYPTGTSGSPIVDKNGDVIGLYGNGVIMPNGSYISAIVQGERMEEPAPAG
Numbers without * were called inactive; i = inactive; . = not tested or not shown; + = active, no number.

Each structure is followed by: Hsc70, WNV NS2B-NS3 inh, MT1-MMP reporter
> CCOC(=O)C(NC(=O)c1ccc(OC)cc1)(Nc1cc(C)on1)C(F)(F)F (stereo not given)
    -3.2%, -0.65, i
> O=S(=O)(Nc1ccc(-c2nc3cccnc3s2)cc1)c1cccs1
    -8.9%, 7.23, i
> Nc1ccc(S(=O)(=O)Nc2ccccn2)cc1
    -3.8%, -3.12*, i
> CCc1c(C(=O)O)[nH]c2ccc(Br)cc12
    1.6%, -0.32, i
> CCOc1ccc(S(=O)(=O)NCCC2=CCCCC2)c2ccccc12
    -1.7%, ., i
> CSCCC(NC(=O)c1ccccc1)C(=O)NCc1ccco1 (stereo not given)
    -2.7%, -2, i
> COc1ccc(CCC(=O)Nc2nc3ccccc3[nH]2)cc1OC
    -1.7%, ., i
> c1ccn2c(c1)nc1c2nc2ccccn21
    8.7%, 7.04, i
> CCCc1[nH]nc2c1C(c1ccccc1OC)C(C#N)=C(N)O2 (stereo not given)
    -0.6%, -0.79, i
> Cc1nc2nc[nH]n2c(=O)c1NS(C)(=O)=O
    3.4%, -0.38, i
> CC(C)n1c(NCc2cccs2)nc2ccccc21
    -1.4%, -0.28, i
> O=C(Nc1nc(-c2cccs2)cs1)c1cccc(S(=O)(=O)N2CCCCCC2)c1
    -16.9%, 1.65, i
> COc1ccc(Br)c(C(=O)Nn2c(C)nc3ccccc3c2=O)c1
    -6.2%, -1.24, i
> COc1ccc(N2CCN(C(=O)c3ccc4nc(N5CCCCC5)sc4c3)CC2)cc1
    1.0%, 1.79, i
> Cc1cc(C)nc(N(C#N)S(=O)(=O)c2ccc(Br)cc2)n1
    11.2%, ., i
> CCOc1ccc(-n2c(SC(C)C)nc3c(c2=O)SCC3)cc1
    -1.1%, -0.34, i
> O=C(CSc1nc(Nc2ccccc2)nc(N2CCOCC2)n1)Nc1ccc2c(c1)OCCO2
    0.1%, -1.45, i
> CC(C)Cn1c(C(C)C)nc([N+](=O)[O-])c1Sc1ccc(Cl)cn1
    -0.8%, ., i
> CCn1c(=O)n(CC)c2cc(S(=O)(=O)Nc3ccccc3C)c(C)cc21
    0.5%, -0.51, i
> O=C(CSc1ccc(-c2nc3ccccc3[nH]2)cn1)N1CCN(C(=O)c2ccco2)CC1
    0.3%, 0.3, i
> COc1ccc(C(=O)Oc2c(CN3CCOCC3)cc(Cl)c3cccnc23)cc1OC
    3.5%, -0.58, i
> CCC(C)Nc1nc(SC(C(C)=O)C(C)=O)nc(N(C)C)n1 (stereo not given)
    0.8%, -0.67, i
> CCOC(=O)C1=C(C)NC(=O)NC1c1ccc2c(c1)OCCO2 (stereo not given)
    0.6%, -0.57, i
> O=C(O)c1ccc(CN2C(=O)CSC2=S)cc1
    -6.5%, -0.24, i
> COC(=O)c1ccc(O)c(Sc2cc(C(=O)OC)ccc2O)c1
    5.1%, 0.71, i
> Cn1cc(S(=O)(=O)CC(=O)Nc2ccc3c(c2)OCCO3)c2ccccc21
    7.1%, ., i
> COC(=O)c1c(-c2ccccc2)csc1NC(=O)c1ccco1
    10.4%, 1.54, i
> c1coc(CNc2ncnc3c2oc2ccccc23)c1
    2.7%, -0.84, i
> CN(CCNC(=O)C1(O)c2ccccc2NC(=O)N1c1ccccc1)Cc1ccccc1 (stereo not given)
    3.0%, 1.77, i
> Cc1cc(C)cc(C(=O)N2CC(C)OC(C)C2)c1 (stereo not given)
    0.3%, ., i
> CCOC(=O)c1nnn(-c2nn3nnnc3c3ccccc23)c1C
    -1.6%, -0.3, i
> CC(=O)c1ccc2c3c(cccc13)CC2
    4.1%, ., i
> CCCn1c(SCc2ccon2)nc2ccccc2c1=O
    -0.3%, ., i
> O=C(Cc1ccccc1)Nc1nonc1NC(=O)c1ccccc1
    -1.9%, 0.78, i
> Cc1ccc(C2C(C(=O)c3sc(C)nc3C)=C(O)C(=O)N2CCN(C)C)o1 (stereo not given)
    -8.1%, -0.01, i
> Cc1cc(C)n(C(=O)c2cc3sccc3[nH]2)n1
    0.0%, -0.65, i
> CC(=O)Nc1ccc(S(=O)(=O)N2CCCc3ccccc32)cc1
    -1.8%, -0.12, i
> CCN(CC)CCOC(=O)c1c(C)oc2ccc(OC)cc12
    2.1%, -1.08, i
> COc1cc2cc3c(N)c(C(=O)NCc4ccco4)sc3nc2cc1OC
    -0.6%, 0.02, i
> Cc1ccc(-c2noc(COc3ccccc3C)n2)cc1
    -7.8%, 0.49, i

Grouped by structure: the entries above with a Cl atom (two)
Each structure is followed by: Hsc70, WNV NS2B-NS3 inh, MT1-MMP reporter
> CC(C)Cn1c(C(C)C)nc([N+](=O)[O-])c1Sc1ccc(Cl)cn1
    -0.8%, ., i
> COc1ccc(C(=O)Oc2c(CN3CCOCC3)cc(Cl)c3cccnc23)cc1OC
    3.5%, -0.58, i

(next part)
Each structure is followed by: Hsc70, WNV NS2B-NS3 inh, MT1-MMP reporter
> CCOc1ccccc1NS(=O)(=O)c1cccs1
    -1.3%, -0.21, i
> COc1ccc(-c2ccc(=O)n(Cc3cc(=O)n4ccccc4n3)n2)cc1
    -3.9%, 0.78, i
> Cc1c(/C=N/n2cnnc2)c2ccccc2n1CCOc1ccccc1
    -4.0%, -0.01, i
> O=C(O)Cc1csc2ccccc12
    1.0%, 0.16, i
> CCOC(=O)CSc1nc2c(c(=O)n1-c1ccc(OC)cc1)SCC2
    1.4%, -0.05, i
> CCOc1ccc(NC(=O)c2cc3n(n2)C(C(F)(F)F)CC(c2ccco2)N3)cc1 (stereo not given)
    2.9%, 0.61, i
> COc1ccccc1-c1cc(C(=O)NC(C)C)no1
    -2.8%, 0.45, i
> CCCc1nnc(NC(=O)c2cc(OC)cc(OC)c2)s1
    0.9%, 1.21, i
> COc1ccc(C(=O)N2CCN(c3nc4ccccc4o3)CC2)cc1OC
    -0.5%, -1.07, i
> COc1ccc(-n2ncc3c(NCc4ccccn4)ncnc32)cc1
    2.0%, 1.7, i
> Cc1noc(/C=C/N(C)C)c1S(=O)(=O)N(C)CC(=O)N1CCc2ccccc21
    1.0%, 0.11, i
> O=C(Nc1ccc(N2CCOCC2)c(Cl)c1)c1cccnc1Cl
    1.3%, ., i
> O=C(CSc1nc2cccnc2n1Cc1ccccc1)N1CCCC1
    0.4%, ., i
> CCS(=O)(=O)Nc1ccc(-c2nnc(SCC(=O)c3ccc(NC(C)=O)c(OC)c3)o2)cc1
    4.3%, 0.12, i
> CCn1c(SCC(=O)NCc2ccccc2)nc2ccccc2c1=O
    1.2%, -0.32, i
> O=C1CSC(c2cccnc2)N1C1CCCCC1 (stereo not given)
    -3.4%, -0.93, i
> CCOC(=O)c1ccc(N2CN=C3SCC(=O)N3C2)cc1
    -5.2%, -1.39, i
> Cn1c(=O)c2c(nc(CN3CCCCC3)n2Cc2c(F)cccc2Cl)n(C)c1=O
    -1.3%, 1.96, i
> Cc1cc(C(=O)O)c(S(C)(=O)=O)s1
    -3.0%, 0.87, i
> CC(C)(C)c1ccc(OCC(=O)NCc2ccco2)cc1
    -2.7%, 2.17, i
> O=C(CN1C(=O)CCSc2ccccc21)Nc1ccc(F)cc1
    -3.6%, 0.14, i
> COCCn1c(SCc2nnc(-c3ccc(OC)c(OC)c3)o2)nc2sc3c(c2c1=O)CCC3
    -0.6%, ., i
> CCOC(=O)C1=C(CS(=O)(=O)c2ccccc2)NC(=O)NC1c1ccccc1 (stereo not given)
    -0.1%, -0.56, i
> CC(C)(C)OC(=O)N1CCCC1C(=O)NCCc1ccccc1 (stereo not given)
    2.8%, -0.61, i
> N/C(=N\c1nc2c(c(=O)[nH]1)CCCC2)Nc1ccc(Oc2ccccc2)cc1
    8.2%, ., i
> N#CCc1nc(CSc2nc3ccccc3o2)cs1
    0.5%, 1.14, i
> O=C(CN1CCN(c2ccccc2F)CC1)c1ccc2cc[nH]c2c1
    6.6%, -0.67, i
> CC(C)CN(CC(C)C)S(=O)(=O)N1CCC(C(=O)NCCN2CCOCC2)CC1
    -0.1%, 0.99, i
> O=C1N2c3ccccc3CCc3cccc(c32)C1(O)C(F)(F)F (stereo not given)
    -1.7%, 1.31, i
> C/C=C/Cn1c(N(C)Cc2ccccc2)nc2c1c(=O)[nH]c(=O)n2C
    -1.5%, -0.74, i
> O=C(c1cccs1)c1coc2ccc(O)cc12
    1.5%, ., i
> Cc1ccc(C(C)NC(=O)c2ccco2)cc1 (stereo not given)
    2.6%, ., i
> COc1ccc2[nH]cc(C(O)CN3CCN(c4ccccc4)CC3)c2c1 (stereo not given)
    0.5%, -0.19, i
> CCOc1ccc2nc(Nc3nc4c(c(=O)[nH]3)CCC4)nc(C)c2c1
    0.5%, -0.3, i
> Cc1cc(C)n2cc(CSc3nnnn3-c3ccccc3C)nc2n1
    2.2%, 1.81, i
> Cc1ccc(N2C(=O)C(Cl)=C(NCCO)C2=O)c(C)c1
    -6.7%, -0.46, i
> O=C(c1ccccc1Cl)N1CCN(c2ccccn2)CC1
    -0.5%, -0.35, i
> Cn1c(CNc2ccc(Cl)cc2)nnc1SCc1ccccc1
    -4.3%, 1.08, i
> CCn1c(SCC(=O)NCCOc2ccccc2)nc2ccccc2c1=O
    -4.3%, 0.13, i
> CCC1(CC)C(=O)C(C)(C)C(=O)OC1c1cccs1 (stereo not given)
    4.9%, 0.17, i
> N#C/C(=C(/O)CN1C(=O)c2ccccc2C1=O)c1nc2ccccc2[nH]1
    -6.3%, -0.82, i
> COc1ccc(CCNc2ncnc3nc[nH]c23)cc1OC
    4.2%, -0.48, i
> O=C1CCCN1CCCN1C(=O)N[C@@H](Cc2ccccc2)C1=O
    0.9%, 0.46, i
> CCOC(=O)N1CCN(C(=O)C2CC(c3ccccc3OC)=NO2)CC1 (stereo not given)
    -2.1%, -0.15, i
> Cc1cc(C)cc(N2CCN(C(=O)N3CCOCC3)CC2)c1
    -1.6%, 0.54, i
> CC1CCCN(S(=O)(=O)c2ccc(NC(=O)c3cccc(-n4cnnn4)c3)cc2)C1 (stereo not given)
    -1.4%, -1.11, i
> OCCN1CN=C(Nc2nc3ccccc3o2)NC1
    7.3%, -0.72, i
> COc1ccc(N2C(=NC(C)=O)SC3CS(=O)(=O)CC32)cc1OC (stereo not given)
    -10.7%, 0.96, i
> Oc1ccccc1-c1cc(C(F)(F)C(F)F)[nH]n1
    0.4%, -0.39, i
> O=C(c1ccc(=O)n(Cc2ccccc2)n1)N1CCN(C/C=C/c2ccccc2)CC1
    7.6%, -0.06, i
> COCC(=O)Nc1nc2ccc(S(C)(=O)=O)cc2s1
    1.6%, -0.9, i
> CCN=C(NCC)SC1CC(=O)N(c2ccccc2)C1=O (stereo not given)
    10.3%, 0.69, i
> CCOc1ccc(NC(=O)C2CCCN(S(=O)(=O)c3cccc4nsnc34)C2)cc1 (stereo not given)
    -4.2%, ., i
> O=C(COC(=O)c1cccc2ccccc12)Nc1ncc(C(F)(F)F)cc1Cl
    4.6%, ., i
> CC(=O)CCc1oc2ccc(NC(C)=O)cc2c1-c1ccc(C)o1
    2.8%, -0.6, i
> CCOC(=O)C1=C(C)N(c2ccccc2)C(=O)C1CC(=O)O (stereo not given)
    3.9%, 0.006, i
> COc1ccc(S(=O)(=O)Nc2cc(Cl)ccc2OC)cc1
    4.2%, 0.35, +
> CC(NS(=O)(=O)c1ccc(CCC(=O)N2CCN(C)CC2)cc1)c1ccccc1 (stereo not given)
    3.8%, 1, i
> CCN(C(=O)COC(=O)c1ccccc1Nc1cccc(C)c1C)C1CCS(=O)(=O)C1 (stereo not given)
    1.6%, ., i
> O=S(=O)(NCCCO)c1ccc2c(c1)Cc1cc(S(=O)(=O)NCCCO)ccc1-2
    1.6%, -0.98, i

Among those listed so far, 2 have a tert-butyl group.
Each structure is followed by: Hsc70, WNV NS2B-NS3 inh, MT1-MMP reporter
> CC(C)(C)c1ccc(OCC(=O)NCc2ccco2)cc1
    -2.7%, 2.17, i
> CC(C)(C)OC(=O)N1CCCC1C(=O)NCCc1ccccc1 (stereo not given)
    2.8%, -0.61, i

Next section
Each structure is followed by: Hsc70, WNV NS2B-NS3 inh, MT1-MMP reporter
> O=C(O)CCC(NS(=O)(=O)c1ccc(N2CCCC2=O)cc1)C(=O)O (stereo not given)
    -2.7%, -0.39, i
> COc1ccc(-c2noc(CSc3nc4ccccc4c(=O)n3-c3ccccc3)n2)cc1OC
    0.9%, -0.19, i
> COc1cccc(/C=N\n2c(C)nnc2C)c1OC
    3.8%, 1.57, i
> c1cncc(-c2nn3c(Cn4nnc5ccccc54)nnc3s2)c1
    7.6%, -0.62, i
> Cc1ccnc(NC(=O)CCC(=O)N(CC(=O)NCC2CCCO2)Cc2ccc(F)cc2)c1 (stereo not given)
    0.5%, -1.07, i
> CCn1cc(S(=O)(=O)CC(=O)NC2CCCCC2)c2ccccc21
    -2.6%, -0.32, i
> CSc1nncn1/N=C/c1cc(Cl)ccc1F
    -7.3%, -0.57, i
> CC(NC(=O)c1ccncc1)C(C)(C)C (stereo not given)
    -2.9%, ., i
> Nc1ccc(C(=O)N2CCCC2)cc1
    4.4%, ., i
> COCCNC(=O)c1cc2sc3ccccc3c2s1
    -5.8%, 0.6, i
> O=C(Nc1ccc2sccc2c1)c1ccc(Cl)s1
    -3.7%, 0.48, i
> Cc1c(NC(=O)CN2CCN(c3ccccc3)CC2)c(=O)n(-c2ccccc2)n1C
    -1.2%, ., i
> c1ccc(N2CCN(Cc3ccsc3)CC2)nc1
    2.9%, 0.06, i
> CCSCCNC(=O)c1cncc(Br)c1
    -0.7%, -0.28, i

Bioassay records (PubChem)
